TRPML1 ag = human mucolipin-1 channel agonism; Q9GZU1; 0.12% of 410,000 active; TRPML1-expressing cells, Ca2+ dye fluorescence, FDSS; host cell line not named in the record; reference of the full effect not given here; activation, % (no concentration beside the values); in the data active = activation above about 50%; inconclusive = about 30% to 50%; inactive = below about 30%; also: 0% is about no effect; the text of the record puts the active cut at 80%
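Kinetic FDSS Ca2+ read in Tet-induced TRPML1-DL cells (ABD Ca8 dye plus quencher, 45-90 min RT loading): baseline, then compound, then 110 s agonist window; EC80 agonist 54-4 at 4uM final added afterwards for a 110 s antagonist window.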
TRPV1 potentiator = potentiators of human vanilloid receptor 1 (TRPV1); Q8NER1; TRPV1-expressing cells, Fluo-8 calcium influx, capsaicin EC20 potentiation; host cell line not named in the record; control for the full effect not named in the record; potentiation, % at 8.33 µM; 0.02% of 320,000 active; active means potentiation above 80%; inconclusive means 30% to 80%; inactive means below 30%; also: 0% is about no effect
Target sequence (Q8NER1 whole entry, looked up): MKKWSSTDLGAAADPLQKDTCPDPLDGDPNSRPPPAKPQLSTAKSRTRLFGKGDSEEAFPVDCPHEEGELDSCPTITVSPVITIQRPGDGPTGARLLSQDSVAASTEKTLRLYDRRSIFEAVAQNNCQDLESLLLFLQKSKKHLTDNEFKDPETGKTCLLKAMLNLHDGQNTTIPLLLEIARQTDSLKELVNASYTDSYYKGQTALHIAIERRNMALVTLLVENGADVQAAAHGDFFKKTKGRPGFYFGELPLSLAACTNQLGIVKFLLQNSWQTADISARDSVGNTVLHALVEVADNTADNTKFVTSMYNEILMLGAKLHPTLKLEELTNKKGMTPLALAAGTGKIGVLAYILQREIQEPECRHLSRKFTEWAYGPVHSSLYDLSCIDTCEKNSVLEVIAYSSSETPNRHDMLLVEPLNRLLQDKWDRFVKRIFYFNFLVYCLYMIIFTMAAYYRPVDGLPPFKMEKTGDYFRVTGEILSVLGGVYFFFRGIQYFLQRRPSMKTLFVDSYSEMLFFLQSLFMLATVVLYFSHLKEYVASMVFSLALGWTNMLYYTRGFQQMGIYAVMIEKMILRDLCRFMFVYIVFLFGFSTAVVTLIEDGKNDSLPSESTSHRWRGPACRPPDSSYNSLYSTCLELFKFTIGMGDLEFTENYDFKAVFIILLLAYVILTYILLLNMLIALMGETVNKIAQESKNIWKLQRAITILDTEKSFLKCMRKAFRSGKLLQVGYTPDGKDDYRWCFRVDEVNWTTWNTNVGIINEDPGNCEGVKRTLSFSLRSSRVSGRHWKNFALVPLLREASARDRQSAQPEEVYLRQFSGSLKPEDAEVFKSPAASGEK
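Fluo-8 calcium influx in TRPV1-expressing cells, kinetic read (ex 480/em 520 nm). Compound added and read 3 min for agonist activity, followed by capsaicin at EC20 final and 2 min further read for enhancement.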
Sfp inh = inhibitors of Bacillus subtilis Sfp phosphopantetheinyl transferase. Q9F4F7. Biochemical Sfp PPTase activity, qHTS. Potency, µM, for inactives: max response, negative = inhibition, usual class: inhibitors. 3.5% of 310,000 active. AID 1490; active = well fitted inhibition curve with a large enough effect; inconclusive = small, poorly fitted or top-dose-only effect, or another doubt; inactive = no such curve, though single readings can be large or run the other way;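 also: the enzyme is Sfp with the accession as filed and its product quenches rhodamine fluorescence; potency is read from the fitted curve at half-maximal effect; 0% = enzyme reaction without inhibitor and -100% = no enzyme wells; top concentration of the series not given in the record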
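Fluorescence-quenching assay: 15 nM Sfp-PPTase preincubated 15 min at room temperature with compound, then 5 uM rhodamine-CoA and 12.5 uM BHQ-2-labelled YbbR peptide added. Fluorescence (ex 525/em 598 nm) read at start and after 30 min; difference gives rate.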
Menin MLL FP FL = displaces fluorescein MLL peptide from human menin. Fluorescence polarization, fluorescein-MLL peptide displacement from menin. FP activity change, % at 61.4 µM. 290,000 tested, under 10 active. AID 1766; inconclusive = falling polarisation curve, or a change in total fluorescence; inactive = total fluorescence flat and polarisation flat or rising; no compound was filed as active; the % refers to the polarisation; negative = inhibition;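 also: % of control where 0% means no effect; inhibitors lower the polarisation; unlabelled MLL peptide was the positive control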
TRPML1 inh = inhibitors of human TRPML1 channel. Q9GZU1. TRPML1-inducible cells, Ca2+ dye fluorescence, FDSS; active compounds read low; inhibition of EC80 agonist-evoked calcium signal. 0.02% of 390,000 active. AID 624415. activity change, negative = inhibition, % (concentration not given with the values); in the data active means activity change below about -50%; inconclusive means about -30% to -50%; inactive means above about -30%;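 also: stimulus is agonist 54-4 at its EC80 concentration; % is scaled to controls: 0 for no effect and ±100 for the full control effect; the text of the record puts the active cut at -80%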
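TRPML1-DL cells, Tet-induced overnight (~16 h, 37 °C) at 1,500 cells/well, were loaded with Ca8 no-wash dye plus quencher for 45-90 min at room temperature. Compounds were pinned during FDSS kinetic reading; agonist 54-4 at EC80 (4 uM final) then added.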
ClpP mod = qHTS Assay for Activators of ClpP; purified B. subtilis ClpP, FRET peptide cleavage, 20 min; Potency, µM (doses to about 57.5 µM), inactives show at the top dose activity change, negative = active; 1.9% of 340,000 active; active = well fitted falling curve with a large enough effect; inconclusive = small, poorly fitted or top-dose-only effect; inactive = no such curve, though single readings can be large or run the other way; also: potency is read from the fitted curve at half-maximal effect; the source files actives as falling curves though it sought activators and does not explain the sign; nearly all actives have a fitted effect of over 65% in size; many hits overshoot -100%
Target sequence (P80244 whole entry, looked up): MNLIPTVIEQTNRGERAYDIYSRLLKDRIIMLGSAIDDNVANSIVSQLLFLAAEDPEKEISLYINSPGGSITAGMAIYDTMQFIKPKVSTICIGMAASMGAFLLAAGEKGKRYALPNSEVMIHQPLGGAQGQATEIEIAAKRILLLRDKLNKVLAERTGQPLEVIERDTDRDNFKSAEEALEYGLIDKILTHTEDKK
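Purified B. subtilis ClpP, 10 microg/mL final in Tris/HCl pH8 with KCl, BSA, glycerol and Tween-20, cleaved an Abz/nitrotyrosine-quenched decapeptide. Fluorescence (ex 320, em 430) was read at 0 and 20 min at room temperature. Delta was normalized to 5.8 microM ADEP and DMSO/no-enzyme controls.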
PINK1 modulator = changes PINK1 expression; Potency, µM (doses to about 76.6 µM), inactives show at the top dose activation (PINK1 increase), most hits filed as activators; 0.2% of 410,000 active; PINK1 immunofluorescence, high-content cytometry, 24 h; AID 624263; active = well fitted activation curve with a large enough effect; inconclusive = small, poorly fitted or top-dose-only effect; inactive = flat fitted curve, though single readings scatter; cell line not stated here;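 also: potency is read from the fitted curve at half-maximal effect; % of control where 0% means no effect; nearly all actives have a fitted effect of over 65% in size; a mitochondrial uncoupler was the plate control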
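Stable cell line treated 24 h with compounds at 5 concentrations (CCCP controls), then fixed and immunostained for PINK1 plus nuclear and cell stains; PINK1 immunofluorescence quantified by laser-scanning microplate cytometry.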
Numbers without * were called inactive; u = inconclusive; x = no result given; [ ] = remark or other dose.

Values run as follows: TRPML1 ag | TRPV1 potentiator | Sfp inh | Menin MLL FP FL | TRPML1 inh | ClpP mod | PINK1 modulator
COc1cccc(-c2nc(CS(=O)(=O)c3ccccc3)no2)c1
    0.4 | x | -2% | -0.3 | -24 | -18% | 1.3%
O=C(CCCN1C(=O)c2ccccc2C1=O)Nc1ccc(S(=O)(=O)N2CCOCC2)cc1
    0.6 | -10 | 9% | 3.7 | -2 | 0.5% | 1.6%
COCCn1c(SCC(=O)OCc2ccccc2)nc2c1c(=O)[nH]c(=O)n2C
    0.3 | 2 | 19% | 0.5 | 12 | -0.5% | -0.2%
CC(Nc1cc(N2CCOCC2)ccc1[N+](=O)[O-])c1ccccc1 (configuration not stated)
    4.1 | -5 | -11% | 6.6 | 5 | 4.3% | 5.7%
Cc1cnc(C(=O)OCc2ccc(C#N)cc2)cn1
    -0.7 | -7 | 25% | 0.0 | -1 | x | 0.8%
O=C(Cc1c(F)cccc1Cl)Nc1cccnc1
    0.5 | 9 | 10% | 1.4 | -11 | -0.3% | -2.8%[38.3 µM]
COc1cccc(OC)c1C(=O)OCC(=O)N(C)c1ccccc1
    -0.9 | 4 | 5% | 1.8 | 7 | -18% | 4.1%
Cc1cc(C)nc(SSc2nc(C)cc(C)n2)n1
    -0.2 | -11 | 2.2µM* | 4.7 | 9 | x | 0.6%
CN1CCN(C(=O)C23CC4CC(CC(C4)C2)C3)CC1
    0.5 | -1 | 3% | -6.0 | -2 | 0.9% | 2.0%
O=C(O)c1ccc2c(=O)n3c(nc2c1)/C(=C/c1ccc(OC(F)F)cc1OC(F)F)CC3
    -0.4 | -4 | 10% | 10 | -20 | x | 2.1%
COc1ccc(C2=NN(C(=O)c3cccnc3)C(c3ccccc3)C2)cc1 (configuration not stated)
    2.6 | 0 | u | 5.5 | 25 | -0.4% | 1.1%
O=C(CCN1C(=O)/C(=C\c2cccs2)SC1=S)Nc1ccc(C(=O)O)cc1
    0.9 | 27 | 13% | x | 20 | 0.5% | 0.7%
O=S1(=O)N[C@@H](Cc2ccccc2)COc2cc(N3CCN(Cc4ccccc4F)CC3)ccc21
    -0.2 | x | x | x | x | -21% | 1.4%
C[C@@H](NC(=O)Cn1cnc2c(OCc3ccccc3)ncnc21)c1cccc2ccccc12
    -0.3 | x | x | x | -13 | 0.0% | 0.7%
COc1ccc(-c2nc3ccc(NC(C)=O)cc3c(=O)n2Cc2ccccc2)cc1COc1ccc(NC(C)=O)cc1
    -0.1 | x | x | x | x | 4.5% | 0.5%
COc1ccc(CCC(=O)NCc2nc3cccnc3n2Cc2ccc(OC)cc2)cc1
    -0.8 | x | x | x | -12 | 0.0% | -0.6%
c1ccc2oc(-c3ccc4nc[nH]c4c3)nc2c1
    0.6 | -13 | 12% | -0.9 | -2 | 25µM* | 1.3%
COc1ccc(NC(=O)COC(=O)c2ccc3c(c2)OCCO3)cc1OC
    -0.6 | 4 | x | x | -9 | -14% | 2.0%
CCOC(=O)C1=C(C)NC(=O)N(C(C)=O)C1c1ccc(Cl)cc1 (configuration not stated)
    4.3 | -3 | 19% | 2.1 | 0 | 0.8% | u
O=C(NOC(=O)c1ccccc1F)c1ccc(OC(F)F)cc1
    0.2 | 1 | 18% | 0.4 | -6 | x | -1.6%
COc1ccc(-c2csc(Nc3ccc(S(=O)(=O)Nc4cc(OC)nc(OC)n4)cc3)n2)cc1
    -1.9 | -6 | u | 0.5 | 1 | -14% | -0.6%
COc1ccc(NC(=S)N(CCC(C)C)C2CCN(C(C)C)CC2)cc1Cl
    0.4 | 7 | 4µM* | -21 | -6 | x | 4.4%
C[C@@]12C(=O)N(Cc3ccccc3)CC(=O)N1[C@H]1c3ccccc3OC[C@@H]1[C@@H]2c1ccccc1
    -0.2 | 3 | x | x | -2 | 2.7% | 0.0%
Cc1nn(C)c(C(=O)N/N=C/c2cccc(Oc3ccccc3)c2)c1Br
    2.3 | -13 | 15% | x | 1 | -0.2% | 1.3%
Cc1cc(N2CCOCC2)nc2ccc(NC(=O)CCC(=O)N3CCN(c4ccc(F)cc4)CC3)cc12
    2.2 | 2 | -3% | 0.1 | -5 | x | 6.7%
Cc1csc(SCC(=O)Nc2cc(S(=O)(=O)N3CCCC3)ccc2Cl)n1
    -0.8 | 4 | 5% | 0.7 | 1 | -0.5% | -0.3%
CC1CCN(S(=O)(=O)N2CCC(C(=O)O)CC2)CC1
    0.0 | u | 9% | -2.9 | -1 | -3.1% | 1.3%
CCOc1ccc(C(CC(=O)O)NC(=O)c2sc3ccccc3c2Cl)cc1 (configuration not stated)
    1.8 | 3 | 15% | 2.8 | -21 | -2.3% | -0.5%
O=C(C=Cc1ccccc1)c1c[nH]c2ccccc2c1=O
    1.8 | x | x | x | -27 | x | -4.0%
O=C(Nc1ccc(F)cc1F)c1c(C(F)(F)F)ccnc1Oc1cccc(C(F)(F)F)c1
    4.8 | 2 | 3% | 4.0 | 1 | x | 7.7%

Part of the list above, field by field:
Cc1cc(N2CCOCC2)nc2ccc(NC(=O)CCC(=O)N3CCN(c4ccc(F)cc4)CC3)cc12
  TRPML1 ag = 2.2	TRPV1 potentiator = 2	Sfp inh = -3%	Menin MLL FP FL = 0.1	TRPML1 inh = -5	ClpP mod = x	PINK1 modulator = 6.7%
Cc1csc(SCC(=O)Nc2cc(S(=O)(=O)N3CCCC3)ccc2Cl)n1
  TRPML1 ag = -0.8	TRPV1 potentiator = 4	Sfp inh = 5%	Menin MLL FP FL = 0.7	TRPML1 inh = 1	ClpP mod = -0.5%	PINK1 modulator = -0.3%

Going on with the list:
Values run as follows: TRPML1 ag | TRPV1 potentiator | Sfp inh | Menin MLL FP FL | TRPML1 inh | ClpP mod | PINK1 modulator
C=Cn1cc[n+](CC(=O)c2ccc(OC)cc2)c1
    0.1 | 7 | 19% | -4.3 | -15 | -2.1% | 3.0%
Cc1ccc(Cn2cccc2C2=NC(C)(C)CO2)cc1
    0.0 | x | x | x | -11 | 0.5% | 3.0%
COc1cccc(C(=O)C2CCCN(C/C=C/c3ccccc3OC)C2)c1 (configuration not stated)
    -0.8 | 23 | 7% | 2.5 | 9 | x | 10%
COc1ccc(CCC(=O)Nc2ccc(C)c(S(=O)(=O)N(C)C)c2)cc1OC
    -0.1 | 4 | -4% | -1.6 | -4 | 1.4% | 3.8%
CCN1CCN(C(c2cccs2)C(C)NC(=S)Nc2cc(C)ccc2C)CC1 (configuration not stated)
    0.0 | -1 | 18% | 6.7 | 6 | -0.8% | -1.2%
O=C(COC(=O)c1nn(-c2ccccc2)c(=O)c2ccccc12)NC1CCS(=O)(=O)C1 (configuration not stated)
    -0.4 | 27 | 8% | 3.1 | -2 | x | 2.4%
COc1ccc(OCC(=O)Nc2cc3oc4ccccc4c3cc2OC)cc1
    -0.3 | 2 | u | 3.8 | 14 | 1.4% | 6.2%
NC(=O)C1=C[C@@H](c2coc3ccccc3c2=O)C[C@@H](OCc2ccc(CO)cc2)O1
    -0.1 | 6 | 13% | -1.5 | 25 | 2.9% | 0.2%
CCc1ccc(CN(Cc2cn[nH]c2-c2ccc(OC)cc2)C(=O)Nc2cc(Cl)ccc2OC)cc1
    1.2 | x | x | x | 25 | -4.2% | 4.5%
O=C(CCN1C(=O)S/C(=C\c2cccs2)C1=O)Nc1nccs1
    -0.6 | -1 | -17% | 0.7 | -3 | 1.0% | 4.1%
CCNc1nc(SC(C)C(=O)OC)nc(N2CCOCC2)n1 (configuration not stated)
    -0.5 | -15 | 9% | -0.6 | -2 | -1.3% | 0.8%
O=C(Nc1cc2c(cc1C(=O)c1ccccc1Br)OCCO2)c1cccc(Cl)c1
    -0.3 | x | x | x | -4 | -0.7% | 0.2%
CS(=O)(=O)Nc1cccc(-c2nccc(NCc3ccccc3)n2)c1
    x | x | -4% | 6.6 | x | x | 0.9%
CSc1nc(C)c2c(n1)N(c1ccc(O)cc1)CC2
    0.8 | 13 | 12% | -1.8 | -10 | x | 0.3%
COc1ccc(CC(C)N2CCN(c3ccccc3OC)CC2)cc1OC (configuration not stated)
    0.5 | 20 | 5% | 0.8 | 3 | 1.0% | 0.7%[38.3 µM]
O=C(COC(=O)Cc1c(F)cccc1Cl)NCCC1=CCCCC1
    -0.7 | -28 | 14% | u | -8 | 1.0% | -1.8%
CCOc1ccc(NC(=O)c2ccccc2OCC(=O)c2ccccc2)cc1
    0.2 | -9 | u | 6.1 | 46 | -1.7% | 6.6%
COc1cc(NC(=O)COC(=O)[C@@H]2CCCN2S(=O)(=O)c2ccc(Cl)cc2)cc(OC)c1OC
    1.7 | 11 | -3% | 3.1 | -6 | -0.9% | 2.5%
CCOc1ccccc1CNC(=O)c1cccn1-c1nnc(N2CCCCC2)s1
    2.8 | x | x | x | 3 | -1.6% | -1.6%
COc1cc2c(cc1OC)CN(c1ccc(C(F)(F)F)cn1)CC2
    2.3 | 7 | 9% | 1.1 | 3 | x | 11%
COc1ccccc1CNC(=O)c1ccc(NC(=O)N2CC(C)Sc3ccccc32)cc1 (configuration not stated)
    1.8 | x | x | x | -2 | -7.1% | 1.7%
CCOC(=O)COc1ccc(C2NC(C(=O)O)CS2)cc1 (configuration not stated)
    -0.5 | -10 | 45µM* | 5.5 | -4 | -5.7% | 0.9%
Cc1c(C(=O)N(Cc2cccs2)C2CCS(=O)(=O)C2)oc2ccccc12 (configuration not stated)
    -0.5 | -15 | 4% | -1.2 | -14 | 3.6% | 4.3%[38.3 µM]
COc1cc(N)cc(NC(=O)c2ccncc2)c1
    -0.7 | 13 | 9% | 4.8 | -17 | 0.5% | 2.5%
O=C(Oc1cc(-c2ccccc2)no1)c1ccc(F)cc1
    -0.7 | 4 | 4% | 4.2 | 5 | 2.4% | 1.2%
CCCSCCCNC(=O)c1cc2c(s1)CS(=O)(=O)C2
    -0.2 | -4 | -12% | 1.7 | 51 | 1.5% | 0.4%[38.3 µM]
O=C(Nc1ccccc1)c1ccc(NCCN2CCOCC2)c(S(=O)(=O)N2CCOCC2)c1
    -0.2 | -12 | 11% | -1.1 | 21 | -13% | -0.8%

Compound activity: PubChem, National Center for Advancing Translational Sciences (NCATS)
